A1 apoptosis 2: blocks A1, raising caspase activity; MEF A1-2A-BIM cells, caspase-Glo luminescence, 3 h; percent of clofoctol response, DMSO zero; caspase activation, % (concentration not given with the values); 24,000 tested, under 10 active; in the data active = caspase activation above about 5.9%;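 note: wells of about 30 µL received 50 nL stock; the first replicate is given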
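system = A1-2A-BIM-expressing MEF cells | quantity = 2500 MEF cells/well | dosing = 50 nL compound per well, pinned | schedule = overnight cell settling, then 3 h compound exposure, 37 °C | signal = luminescence from DEVD-luciferin Caspase-Glo reagent, 1:1 in 50 mM HEPES, 1 h RT | read-out = Caspase-3/7 activation, seen as rise in luminescence signal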
An asterisk follows results filed as active.

Compound,A1 apoptosis 2
CC(C)NC(=O)Nc1ccc2c(c1)C(=O)N([C@H](C)CO)C[C@H](C)[C@H](CN(C)S(=O)(=O)c1cccs1)OCCCC[C@@H](C)O2,-0.8
Cc1noc(C)c1NC(=O)Nc1ccc2c(c1)C(=O)N([C@H](C)CO)C[C@@H](C)[C@@H](CN(C)C(=O)NC(C)C)OCCCC[C@@H](C)O2,0.4
C[C@H]1CCCCO[C@H](CN(C)C(=O)c2ccccc2)[C@@H](C)CN([C@@H](C)CO)C(=O)c2cc(NC(=O)c3ccccc3)ccc2O1,-0.3
COc1ccc(S(=O)(=O)Nc2ccc3c(c2)C(=O)N([C@@H](C)CO)C[C@@H](C)[C@H](CN(C)S(=O)(=O)c2ccc(OC)cc2)O3)cc1,0.1
C[C@H]1CN([C@@H](C)CO)C(=O)Cc2cc(NC(=O)Nc3ccc(F)cc3)ccc2O[C@@H]1CN(C)C(=O)Nc1ccc(C(F)(F)F)cc1,-0.8
C[C@@H]1CN([C@@H](C)CO)C(=O)c2cccc(NS(C)(=O)=O)c2O[C@@H]1CN(C)S(=O)(=O)c1cccs1,0.7
CC(C)NC(=O)N(C)C[C@@H]1Oc2c(NS(=O)(=O)c3ccccc3)cccc2C(=O)N([C@H](C)CO)C[C@H]1C,-0.1
C[C@@H]1CN([C@H](C)CO)C(=O)c2cc(NC(=O)Nc3cccc4ccccc34)ccc2O[C@@H](C)CCCCO[C@H]1CN(C)Cc1ccc(C(=O)O)cc1,-0.6
C[C@@H]1CN([C@@H](C)CO)C(=O)c2cc(N(C)C)ccc2O[C@@H](C)CCCCO[C@H]1CN(C)C,0.2
COc1ccc(CN(C)C[C@@H]2Oc3c(NS(=O)(=O)c4ccc(OC)cc4)cccc3C(=O)N([C@@H](C)CO)C[C@H]2C)cc1,0.2
Cc1noc(C)c1S(=O)(=O)Nc1ccc2c(c1)CC(=O)N([C@H](C)CO)C[C@@H](C)[C@@H](CN(C)C(=O)Nc1cccc3ccccc13)O2,0.5
C[C@@H]1CN([C@H](C)CO)C(=O)Cc2cc(NC(=O)NC3CCCCC3)ccc2O[C@@H]1CN(C)C(=O)Nc1cccc2ccccc12,-1.5
C[C@@H]1CN([C@@H](C)CO)C(=O)c2cccc(NS(=O)(=O)c3cccs3)c2O[C@@H]1CN(C)CC1CC1,0.5
C[C@@H]1CN([C@H](C)CO)C(=O)c2cc(NC(=O)Cn3cnnn3)ccc2O[C@@H]1CN(C)C,-0.3
C[C@H]1CN([C@@H](C)CO)C(=O)c2cc(NS(=O)(=O)c3cn(C)cn3)ccc2O[C@H]1CN(C)Cc1ccc(C(=O)Nc2ccccc2N)cc1,-0.1
Cc1ccc(S(=O)(=O)N(C)C[C@@H]2Oc3c(NC(=O)C4CCOCC4)cccc3C(=O)N([C@H](C)CO)C[C@H]2C)cc1,-2.2

6 records picked at random from those above:
Compound,A1 apoptosis 2
C[C@H]1CN([C@@H](C)CO)C(=O)c2cc(NS(=O)(=O)c3cn(C)cn3)ccc2O[C@H]1CN(C)Cc1ccc(C(=O)Nc2ccccc2N)cc1,-0.1
C[C@@H]1CN([C@H](C)CO)C(=O)c2cc(NC(=O)Cn3cnnn3)ccc2O[C@@H]1CN(C)C,-0.3
C[C@@H]1CN([C@@H](C)CO)C(=O)c2cccc(NS(=O)(=O)c3cccs3)c2O[C@@H]1CN(C)CC1CC1,0.5
Cc1ccc(S(=O)(=O)N(C)C[C@@H]2Oc3c(NC(=O)C4CCOCC4)cccc3C(=O)N([C@H](C)CO)C[C@H]2C)cc1,-2.2
COc1ccc(CN(C)C[C@@H]2Oc3c(NS(=O)(=O)c4ccc(OC)cc4)cccc3C(=O)N([C@@H](C)CO)C[C@H]2C)cc1,0.2
C[C@@H]1CN([C@H](C)CO)C(=O)Cc2cc(NC(=O)NC3CCCCC3)ccc2O[C@@H]1CN(C)C(=O)Nc1cccc2ccccc12,-1.5

The listing continues:
Compound,A1 apoptosis 2
CC(C)(C)OC(=O)NC/C=N/NC(=O)c1ccccn1,-1.2
COc1ccc(NC(=O)Nc2ccc3c(c2)CC(=O)N([C@H](C)CO)C[C@H](C)[C@H](CN(C)C(=O)Nc2c(C)noc2C)O3)cc1,0.1
COC(=O)C(CC#Cc1ccc2c(c1)[C@]1(C(=O)N2)[C@H](C(=O)NC[C@H](O)c2ccccc2)[C@H]2C(=O)O[C@H](c3ccccc3)[C@H](c3ccccc3)N2[C@@H]1c1ccccc1OCCO)C(=O)OC,-0.1
COc1ccc(S(=O)(=O)N(C)C[C@@H]2OCCCC[C@@H](C)Oc3ccc(NC(=O)Nc4ccccc4)cc3C(=O)N([C@@H](C)CO)C[C@H]2C)cc1,0.2
C[C@@H]1CN([C@@H](C)CO)C(=O)c2cccc(NS(=O)(=O)c3ccc(Cl)cc3)c2O[C@H]1CN(C)C,0.1
C[C@H](CO)N1C[C@H](C)[C@@H](CN(C)C(=O)Nc2cccc3ccccc23)OCc2cn(nn2)CCCC1=O,0.2
COc1ccc(NC(=O)N(C)C[C@H]2OCCCC[C@@H](C)Oc3ccc(NS(C)(=O)=O)cc3C(=O)N([C@@H](C)CO)C[C@H]2C)cc1,-0.5
[N-]=[N+]=Nc1ccc(NC(=O)c2ccccc2)cc1,-6.5
C[C@@H]1CCCCO[C@@H](CN(C)S(=O)(=O)c2cccs2)[C@@H](C)CN([C@@H](C)CO)C(=O)c2cc(NS(=O)(=O)c3ccc(F)cc3)ccc2O1,0.6
CC(C)NC(=O)N(C)C[C@H]1OCCCC[C@@H](C)Oc2ccc(NC(=O)CCCN(C)C)cc2C(=O)N([C@@H](C)CO)C[C@@H]1C,-0.7
C[C@@H]1CN([C@H](C)CO)C(=O)CCCn2nncc2CO[C@@H]1CN(C)C(=O)Nc1ccc(C(F)(F)F)cc1,0.0
COc1ccc(NC(=O)N(C)C[C@H]2OCCCC[C@@H](C)Oc3ccc(NC(=O)C4CCCCC4)cc3C(=O)N([C@@H](C)CO)C[C@H]2C)cc1,-0.6
C[C@H](CO)N1C[C@H](C)[C@@H](CN(C)Cc2ccncc2)OCc2cnnn2CCCC1=O,-1.8
CCO[C@H]1OC(C(=O)N2CCOCC2)=C[C@@H](C2CCCCC2)[C@@H]1CCCO,-0.2
C[C@@H]1CCCCO[C@H](CN(C)C(=O)c2ccncc2)[C@H](C)CN([C@@H](C)CO)C(=O)c2cc(NS(C)(=O)=O)ccc2O1,1.0
COc1ccc(NC(=O)Nc2ccc3c(c2)C(=O)N([C@H](C)CO)C[C@H](C)[C@H](CN(C)S(=O)(=O)c2cccs2)OCCCC[C@@H](C)O3)cc1,-0.7
C[C@H](CO)N1C[C@H](C)[C@H](CN(C)C(=O)Nc2cccc3ccccc23)Oc2ccc(NC(=O)CCN3CCOCC3)cc2CC1=O,-0.1
Cc1noc(C)c1S(=O)(=O)N(C)C[C@@H]1OCCCC[C@@H](C)Oc2ccc(NS(C)(=O)=O)cc2C(=O)N([C@@H](C)CO)C[C@@H]1C,-1.4
C[C@H]1CN([C@@H](C)CO)C(=O)c2cccc(NC(=O)NC3CCCCC3)c2O[C@H]1CN(C)C(=O)Nc1ccccc1,1.0
C[C@@H]1CCCCO[C@H](CN(C)C(=O)Cc2ccccc2)[C@H](C)CN([C@@H](C)CO)C(=O)c2cc(NC(=O)c3ccccc3)ccc2O1,0.2
COc1ccc([Si](C)(C)[C@@H]2[C@@H](CCn3cc(CCO)nn3)O[C@]3(C(=O)N(C)c4ccccc43)[C@H]2C)cc1,1.4
C[C@H]1CCCCO[C@@H](CN(C)S(=O)(=O)c2cn(C)cn2)[C@@H](C)CN([C@@H](C)CO)C(=O)c2cc(NS(=O)(=O)c3ccc(Cl)cc3)ccc2O1,0.5
C[C@@H]1CN([C@H](C)CO)C(=O)c2cc(NS(=O)(=O)c3ccccc3)ccc2O[C@@H](C)CCCCO[C@@H]1CN(C)C,-0.7
C[C@H](CO)N1C[C@H](C)[C@@H](CN(C)C(=O)NC2CCCCC2)Oc2ccc(NC(=O)Nc3ccccc3)cc2CC1=O,-0.1
C[C@@H]1CN([C@@H](C)CO)C(=O)Cc2cc(NC(=O)Nc3ccc(F)cc3)ccc2O[C@H]1CN(C)CC1CC1,0.0
C[C@@H]1CN([C@H](C)CO)C(=O)c2cc(NC(=O)c3ccncc3)ccc2O[C@H]1CN(C)Cc1ccc(-c2ccccc2)cc1,0.2
C[C@@H]1CCCCO[C@H](CN(C)Cc2ccc(C(=O)O)cc2)[C@H](C)CN([C@H](C)CO)C(=O)c2cc(NS(=O)(=O)c3ccc(Cl)cc3)ccc2O1,0.4
CCO[C@H]1OC(C(=O)N2CCN(Cc3ccc4c(c3)OCO4)CC2)=C[C@@H](c2csc3ccccc23)[C@@H]1CCCO,-0.7
Cc1noc(C)c1NC(=O)Nc1ccc2c(c1)C(=O)N([C@H](C)CO)C[C@H](C)[C@@H](CN(C)Cc1ccc(Oc3ccccc3)cc1)O2,0.9
C[C@H](CO)N1C[C@H](C)[C@@H](CN(C)S(=O)(=O)c2cn(C)cn2)OCCCC[C@H](C)Oc2ccc(NC(=O)Cc3ccccc3)cc2C1=O,-0.2
CCOc1cc(/C=N/NC(=O)CCCCCCC(=O)NO)ccc1O,0.4
C[C@@H]1CN([C@@H](C)CO)C(=O)Cc2cc(NC(=O)c3ccncc3)ccc2O[C@@H]1CN(C)Cc1ccc(C(=O)O)cc1,-1.6
C[C@@H]1CCCCO[C@@H](CN(C)C(=O)Nc2ccc(C(F)(F)F)cc2)[C@H](C)CN([C@@H](C)CO)C(=O)c2cc(NC(=O)CCC(F)(F)F)ccc2O1,0.4
C[C@H]1CN([C@@H](C)CO)C(=O)c2cc(NC(=O)Nc3cccc4ccccc34)ccc2O[C@H]1CN(C)S(=O)(=O)c1cccs1,-0.3
C[C@H](CO)N1C[C@H](C)[C@H](CN(C)C(=O)Nc2cccc3ccccc23)Oc2ccc(NC(=O)c3ccncc3)cc2C1=O,0.6
C[C@@H]1CCCCO[C@@H](CN(C)C)[C@@H](C)CN([C@H](C)CO)C(=O)c2cc(NS(=O)(=O)c3ccc(Cl)cc3)ccc2O1,0.3
C[C@H](CO)N1C[C@H](C)[C@H](CN(C)Cc2ccc(-c3ccccc3)cc2)Oc2ccc(NC(=O)Nc3ccc4c(c3)OCO4)cc2CC1=O,0.3
C[C@H](CO)N1C[C@H](C)[C@H](CN(C)S(=O)(=O)c2ccc(-n3cccn3)cc2)OCc2cnnn2CCCC1=O,0.5
C[C@@H]1CN([C@@H](C)CO)C(=O)CCCn2cc(nn2)CO[C@H]1CN(C)C(=O)Nc1ccc2c(c1)OCO2,0.1
C[C@H]1CN([C@@H](C)CO)C(=O)CCCn2cc(nn2)CO[C@@H]1CN(C)Cc1ccc2c(c1)OCO2,0.4
C[C@@H]1CCCCO[C@H](CN(C)C(=O)Nc2ccccc2)[C@H](C)CN([C@H](C)CO)C(=O)c2cc(NC(=O)c3ccccc3)ccc2O1,1.2
O=C(C1=C[C@@H](c2ccc3c(c2)Cc2ccccc2-3)C[C@@H](OCCCCO)O1)N1CCCCC1,-0.2
C[C@H](CO)N1C[C@H](C)[C@@H](CN(C)Cc2ccc(C(F)(F)F)cc2)Oc2ccc(NC(=O)Cc3ccccc3)cc2CC1=O,1.7
Cc1noc(C)c1NC(=O)N(C)C[C@H]1OCCCC[C@H](C)Oc2ccc(NC(=O)Nc3cccc4ccccc34)cc2C(=O)N([C@H](C)CO)C[C@@H]1C,-0.6
C[C@H](CO)N1C[C@H](C)[C@@H](CN(C)C(=O)c2ccncc2)OCCCC[C@H](C)Oc2ccc(NC(=O)CCC(F)(F)F)cc2C1=O,1.5
C[C@@H]1CN([C@@H](C)CO)C(=O)c2cc(NC(=O)CCC(F)(F)F)ccc2O[C@@H]1CN(C)S(=O)(=O)c1ccccc1,1.8
O=C(CCCCCCC(=O)Nc1ccccc1O)N/N=C/c1ccc([N+](=O)[O-])s1,-1.6
CC(C)NC(=O)Nc1cccc2c1O[C@@H](CN(C)C(=O)Nc1ccc3c(c1)OCO3)[C@@H](C)CN([C@H](C)CO)C2=O,0.3
C[C@H](CO)N1C[C@H](C)[C@H](CN(C)Cc2ccc(C(F)(F)F)cc2)Oc2c(cccc2N(C)C)C1=O,0.4
C[C@H](CO)N1C[C@H](C)[C@@H](CN(C)S(=O)(=O)c2ccc(Cl)cc2)Oc2ccc(NC(=O)Cc3cn(C)c4ccccc34)cc2CC1=O,1.1
C[C@H](CO)N1C[C@H](C)[C@@H](CN(C)Cc2ccc3c(c2)OCO3)Oc2ccc(NC(=O)Nc3ccc4c(c3)OCO4)cc2C1=O,1.2
C[C@@H]1CN([C@@H](C)CO)C(=O)c2cccc(NS(=O)(=O)c3ccc(F)cc3)c2O[C@H]1CN(C)Cc1ccc(C(=O)Nc2ccccc2N)cc1,-1.0
COc1ccc(COCC23N=C4SCc5ccccc5C(=O)N4[C@H](c4ccccc4O2)[C@H]3CO)cc1,0.4
Cc1noc(C)c1NC(=O)Nc1ccc2c(c1)C(=O)N([C@@H](C)CO)C[C@@H](C)[C@@H](CN(C)S(=O)(=O)c1cccs1)OCCCC[C@@H](C)O2,-1.1
CC(C)(C)OC(=O)Nc1ccc(/C=N/NC(=O)CCCCCCC(=O)Nc2ccccc2O)cc1,-0.3

Screening data: PubChem, Broad Institute

An excerpt (hit frequency here may not be typical).
